Screening data deposited in PubChem by several laboratories.
eIF4H inh – inhibitors of RNA binding by human eIF4H. inhibition, % at 35 µM. AID 2012. Q15056. 290,000 compounds, 0.94% hits. eIF4H fluorescence polarization binding assay;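 active means 50% or more with normal probe brightness, or confirmed in later tests; about a fifth of its hits are not listed in these tables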;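 further: calls also rest on retests at 20 µM and on dose response follow-up; 0% = protein and probe with vehicle and 100% = probe without protein; strong numbers were not always called active; many hits fall short of the cut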
CSC inhib – cancer stem cell inhibition; cancer stem cell-like cells viability, luminescence; inhibition, % at 7.5 µM; 300,000 compounds, 1.1% hits; AID 2717;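 active means mean at 75% or more and at least half the replicates too; tested in HMLE shEcad cells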;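 further: 0% = median of negative and 100% = median of positive control wells; the first replicate is given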
PABP FP inh – PABP-poly(A) binding inhibition; AID 2014; P11940; PABP-poly(A) RNA binding, fluorescence polarization; inhibition, % at 35 µM; 290,000 compounds, 1% hits;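 active means 50% or more with normal probe brightness, or confirmed in later tests; about a fifth of its hits are not listed in these tables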;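 further: calls also rest on retests at 20 µM and on dose response follow-up; controls were probe without protein and protein plus probe with vehicle; some compounds called inactive have numbers as strong as hits; many hits fall short of the cut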
Target sequence (P11940 whole entry, looked up): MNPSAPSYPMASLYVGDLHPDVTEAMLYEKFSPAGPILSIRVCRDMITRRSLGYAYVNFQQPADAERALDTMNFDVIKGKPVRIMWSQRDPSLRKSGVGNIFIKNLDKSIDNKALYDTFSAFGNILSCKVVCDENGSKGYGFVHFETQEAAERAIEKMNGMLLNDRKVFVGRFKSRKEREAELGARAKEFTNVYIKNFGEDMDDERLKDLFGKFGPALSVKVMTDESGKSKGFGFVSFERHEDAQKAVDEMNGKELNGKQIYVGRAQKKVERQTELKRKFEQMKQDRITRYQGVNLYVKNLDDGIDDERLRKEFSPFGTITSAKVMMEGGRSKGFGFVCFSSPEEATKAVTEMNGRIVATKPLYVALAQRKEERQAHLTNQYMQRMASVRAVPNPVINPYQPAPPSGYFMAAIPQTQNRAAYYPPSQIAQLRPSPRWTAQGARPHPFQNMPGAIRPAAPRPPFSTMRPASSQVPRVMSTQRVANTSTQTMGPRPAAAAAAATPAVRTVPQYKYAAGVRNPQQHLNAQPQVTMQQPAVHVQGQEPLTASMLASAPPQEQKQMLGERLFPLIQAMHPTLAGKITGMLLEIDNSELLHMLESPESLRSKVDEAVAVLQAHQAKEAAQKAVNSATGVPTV
Rce1 inhib – inhibitors of yeast Ras-converting enzyme | yeast membranes, quenched prenylated peptide cleavage fluorescence | calls only | 290,000 compounds, 0.27% hits | AID 2563;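 active means fall in fluorescence gain of 50% or more versus controls, with final raw signal at or below 3038400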;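 further: plate controls were neutral control wells for no effect and wells lacking membranes for full effect; tested at 10 µM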
Target sequence (Q03530 whole entry, looked up): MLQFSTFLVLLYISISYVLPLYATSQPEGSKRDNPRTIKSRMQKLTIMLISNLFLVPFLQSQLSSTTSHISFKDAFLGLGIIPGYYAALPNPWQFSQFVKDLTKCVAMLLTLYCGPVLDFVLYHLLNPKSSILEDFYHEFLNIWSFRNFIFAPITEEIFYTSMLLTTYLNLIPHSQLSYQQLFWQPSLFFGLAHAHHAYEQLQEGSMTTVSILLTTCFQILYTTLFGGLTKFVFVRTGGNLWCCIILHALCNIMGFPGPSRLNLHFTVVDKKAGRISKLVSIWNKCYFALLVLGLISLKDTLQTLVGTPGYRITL
MT1-MMP act inh – inhibitors of human MT1-MMP activation | AID 651647 | P50281 | 360,000 compounds, 0.061% hits | GFP/RFP ratio change, % at 20 µM | HT1080 RFP-PRO-GFP cells, GFP/RFP ratio fluorescence, overnight; percent of plate control window, DMSO zero;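 active means GFP/RFP ratio change of at least 30% with cell ATP level not reduced by more than half and red fluorescence within 50% of control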; further: strong numbers were not always called active
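Test system: HT1080 RFP-PRO-GFP cells; Benchmarks: DMSO and RFP-L50D-GFP cell wells; Timing: cells overnight before dosing, compound overnight, 37 °C, 5% CO2; Compound: one 20 µM compound dose with 1% DMSO; Read-out: GFP/RFP fluorescence ratio.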
Yeast UUG start – modulators of start codon recognition fidelity in yeast; S. cerevisiae UUG-firefly luciferase reporter, luminescence/redox ratio; activity score, % at 18.7 µM; 350,000 compounds, 0.13% hits; AID 602363;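 active means replicate mean at a twofold rise or more, about +100% in these data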;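 further: firefly luciferase made from a UUG start codon reports start codon fidelity; reporter light over untreated wells divided by growth signal over untreated wells; some hits fall short of that in this replicate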
HIV Env fusion – blocks HIV Env-driven cell-cell fusion. HeLa-JRFL Env/CEM21 cell fusion, luciferase. inhibition, % at 12.3 µM. 360,000 compounds, 1.1% hits. AID 651610;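 active means mean replicate inhibition score of at least 50 and every replicate individually at or above 50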;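 further: 0% = plate neutral controls and 100% = maraviroc near 300 nM; one replicate is shown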
MT1-MMP act inh RFP – also measured in MT1-MMP act inh; calls as there; RFP signal change, %; measured here: RFP expression control read;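 0 = vehicle wells; hits needed this value within 50% of zero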
The depositor's hits bear a star; i = inactive; . = no result given; & = joins results of further samples.

SMILES	eIF4H inh	CSC inhib	PABP FP inh	Rce1 inhib	MT1-MMP act inh	MT1-MMP act inh RFP	Yeast UUG start	HIV Env fusion
CC(=O)Nc1ccc(NC(=O)CSc2nccn2Cc2ccco2)cc1	-7.2	-0.7	-3.0	i	5.3	-7.5	-6.1	7.3
COc1ccc(C(=O)c2coc3c2C(=O)C(=O)c2ccccc2-3)cc1	7.7	51.4	17.9	i	9.6	8.3	-19.5	-53.3
CC1(C(=O)NCc2ccc(Cl)cc2)CCN1C(=O)Cc1cccc2ccccc12 (stereo not given)	.	.	.	.	0.7	-4.9	1.7	22.2
CC(=O)Nc1ccc(CN(C)c2c(C)nc3ccc(C(=O)NC4CCN(Cc5ccccc5)CC4)cn23)cc1	.	.	.	.	-2.8	-0.1	-8.9	17.0
O=C(NCc1ccccn1)C1CCN(Cc2cnn(-c3ccccc3)c2-n2cccc2)CC1	-2.9	-17.4	-8.1	i	1.0	-1.1	-21.1	-40.0
Cc1nc(NC(=O)c2ccncc2)sc1C(=O)N(C)C	7.8	-0.8	8.2	i	-1.8	-2.0	-15.9	-10.1
Cc1onc(-c2ccccc2)c1C(=O)N[C@@H]1C(=O)N2C1SC(C)(C)[C@@H]2C(=O)O (stereo not given in full)	.	.	.	.	0.8	0.1	-0.3	-13.2
CS(=O)(=O)N1CCN(c2ccccc2NC(=O)c2ccc3ccccc3c2)CC1	-7.3	-0.7	1.1	i	1.5	-7.0	-2.4	9.8
CC1C[N+](=C2C=C(N3CCOCC3)CC(C)(C)C2)CC(C)O1 (stereo not given)	3.9	-3.7	39.3	i	-12.7	-9.0	-6.8	14.7
Cc1ccc(C)c(S(=O)(=O)NC(C)C(=O)Nc2ccc(-c3nc4ccccc4s3)cc2)c1 (stereo not given)	-2.9	9.8	-6.4	i	3.3	-11.5	7.0	.
CC1CCc2c(sc(NC(=O)CN3CCN(C(=O)c4ccco4)CC3)c2C#N)C1 (stereo not given)	1.7	27.5	6.8	i	-4.3	-9.6	-13.2	.
COCCCNC1CS(=O)(=O)CC1O (stereo not given)	-2.5	-7.1	2.2	i	1.2	5.4	0.1	8.3
Cc1ccc(OCC(=O)Nc2ccc(N3CCN(C(=O)c4ccco4)CC3)cc2)c(C)c1	-3.9	17.4	4.3	i	-9.5	-19.3	-11.7	32.6
Cc1ccc(C(=O)NCC(=O)OCC(=O)Nc2ccc(Cl)cn2)cc1	.	-6.7	.	.	-0.8	-1.4	-14.8	-15.7
Cc1ccc(-c2c3c(=O)n(C)c(=O)n(C)c3cn2Cc2ccccn2)cc1	4.6	1.7	6.2	i	-2.2	-0.8	-16.5	.
CCOc1nc(NCCc2ccc(OC)c(OC)c2)nc(N2CCN(c3ccc(OC)cc3)CC2)n1	0.1	-5.6	2.1	i	9.8	3.6	-9.6	-1.9
CCN(c1ccccc1)S(=O)(=O)c1ccc(NC(=S)NC(=O)c2cccs2)cc1	-10.2	.	-11.1	i	-5.1	-17.1	-11.0	.
Cc1ccc(NC(=O)Nc2cccnc2)cc1Cl	-4.2	-1.4	2.7	i	2.0	-1.7	-12.5	-27.4
COc1ccc(NC(=O)c2ccc(S(=O)(=O)C(F)F)cc2)c(OC)c1	7.7	5.4	-2.7	i	3.5	4.0	.	15.4
c1cc(CNc2ccc3c(c2)OCCO3)ccn1	3.8	-8.1	-3.5	i	2.9	2.9	-44.0	.
CC(=O)C(Cc1ccccc1)(Cc1ccccc1)C(C)=O	-9.8	-6.0	-5.4	i	-1.1	-2.5	-9.5	1.7
CN(C)/C=N/NC(=O)c1ccccc1Cl	5.8	0.7	2.4	i	6.7	0.5	.	1.0
C=CCNC(=O)c1cc(-c2ccccc2O)on1	-9.1	6.1	4.8	i	-0.6	4.6	-16.4	-16.4
Cc1cccc(N(CC(N)=O)S(C)(=O)=O)c1C	-4.5	29.3	1.5	i	3.0	1.1	.	-29.9
CCCc1nc2c(s1)CCc1onc(-c3cccc([N+](=O)[O-])c3)c1-2	.	40.7	.	i	-7.5	-4.2	-0.1	16.9
COc1cccc(SCc2noc(C(=O)NCC3CC3)c2C(=O)NCC2CC2)c1	.	1.0	.	i	-5.6	-1.3	3.5	31.0
CCOc1ccc(C(=O)NCc2ccco2)cc1Cl	10.3	-4.4	-1.3	i	4.9	1.9	-14.1	9.5
Cc1ccc(N(CC(=O)NCc2ccco2)C(=O)CNS(=O)(=O)c2ccccc2)c(C)c1	-7.5	4.2	17.7	i	-4.5	-2.7	10.8	13.4
Cc1ccnc(SCCn2c(N3CCN(Cc4ccccc4)CC3)nc3c2c(=O)[nH]c(=O)n3C)n1	5.2	-11.4	-2.2	i	-0.5	1.5	4.5	4.2
CCN(C(=O)CSc1nnc(-c2ccccc2Cl)n1N)c1c(N)n(Cc2ccccc2)c(=O)[nH]c1=O	.	.	.	.	-3.1	3.4	-13.7	8.0
CCCc1nnc(NC(=O)CCCC(=O)O)s1	2.7	-3.4	1.1	i	6.8	7.6	-14.4	.
O=C(O)C(O)Cc1c[nH]c2ccccc12 (stereo not given)	2.5	-3.6	13.2	.	1.4	4.0	-1.0	.
COc1ccc(-c2cc(=O)oc3cc(OC(C)C(=O)O)ccc23)cc1 (stereo not given)	-6.2	-18.2	2.2	i	-0.2	-1.0	-6.6	11.4
O=C(c1ccco1)N1CCN(c2cc(C(F)(F)F)nc3ncnn23)CC1	0.2	-2.3	7.9	i	5.2	5.1	-10.4	-24.6
CCC(=O)C(C#N)(c1ccc(OC)c(OC)c1)C(C)C (stereo not given)	.	-8.5	.	.	-0.6	5.8	-30.3	0.9
COc1ccccc1CNC(=O)CCNC(=O)C1CCN(S(=O)(=O)c2ccccc2)CC1	-8.3	-7.0	-1.0	i	0.6	4.3	-5.3	4.4
COC(=O)/C=C1\N/C(=N\c2nc(C)cc(C)n2)N(c2ccc(C)cc2)C1=O	10.8	-15.1	4.8	i	0.5	-1.1	.	17.2
CC1(C)Cc2[nH]c3ccccc3c2C(C)(C)N1	14.2	-1.4	-2.9	i	-0.5	3.2	-11.5	6.7
CCN(CC)c1ccc(C(=O)OCC(=O)NCC2CCCO2)cc1 (stereo not given)	1.5	-2.2	4.1	i	6.4	5.6	-19.5	-29.5
CCOc1ccc(C(Nc2ccc(C)cc2)P2(=O)OCCCO2)cc1 (stereo not given)	4.3	.	-8.4	i	-1.9	0.6	-29.9	.
O=C(N1CCCC1)C(F)(F)Oc1ccc(F)cc1	-12.1	-8.6	-5.7	i	-2.7	-4.4	-5.5	-0.2
CCOC(=O)c1c(C)[nH]c(C(=O)COC(=O)C2=NNC(=O)CC2)c1C	1.9	.	-0.4	i	2.0	7.1	3.6	39.0
O=C(NC1C(=O)NNC1c1ccccc1)c1ccc(F)cc1 (stereo not given)	13.0	0.4	3.9	.	-3.2	4.6	-18.6	-17.4
Cc1ccc(-n2c(=O)cc(N3CCN(Cc4ccccc4)CC3)[nH]c2=O)cc1	4.1	.	10.5	i	3.9	-0.5	0.5	-15.4
O=C(Nc1cccc(S(=O)(=O)c2cccc(NC(=O)C3CC3)c2)c1)C1CC1	-5.6	2.6	-8.0	i	3.9	-23.9	12.4	.
Cc1oc2c(O)c(O)ccc2c(=O)c1-c1ccccc1	10.7	-2.4	6.0	i	1.3	0.2	-10.4&1.1	-10.9
Cc1cc(C)nc(NC(=O)c2ccc(Cl)c([N+](=O)[O-])c2)n1	8.7	-6.6	-0.6	i	0.5	3.2	.	16.0
Cc1ccc(OCC(=O)NNC(=S)NC(=O)c2ccc(Br)o2)c(C)c1	11.5	48.2	0.5	i	1.2	5.3	-7.1	3.2
COc1nc(OCC#N)nc(N2CCCCC2)n1	3.2	-12.6	5.9	i	-0.6	2.7	.	-14.9
COc1ccc2c(c1OC)c(=O)n1c3ccc(OC(C)C(=O)NCCCN4CCOCC4)cc3c3ccnc2c31 (stereo not given)	-10.2	0.1	-6.7	i	11.5	4.3	2.6	.
Cc1ccc(-c2nn3c(C)nnc3s2)cc1NC(=O)c1ccco1	-10.8	-5.8	-9.3	i	2.7	4.8	-1.0	2.9
Cc1ccc(S(=O)(=O)NC2CCCCCC2)cc1	.	-19.7	.	.	5.8	-4.2	8.7	-135.0
CCOC(=O)c1ccc(Nc2c(OCC)c(=O)c2=O)cc1	2.8	-4.7	0.7	i	0.2	-1.4	-11.8	8.7
O=C(Oc1ccc(C(=S)N2CCOCC2)cc1)c1ccccc1F	-6.4	-9.3	-12.4	i	1.3	3.0	-25.1	-9.8
O=C(CSc1ncccn1)NNC(=O)c1ccccc1	-10.5	-24.8	-1.1	i	3.5	3.9	-17.8	-2.1
CCn1cc(C(=O)N2CCN(c3ccccc3F)CC2)c(=O)c2ccc(C)nc21	-4.8	-1.2	-11.7	i	3.1	1.8	-14.1	-5.4
Cc1cc(C)c(NC(=O)c2c[nH]c(=S)n2-c2ccc(F)cc2)c(C)c1	2.2	-13.8	3.2	i	-4.6	0.3	.	1.6
CCOc1ccc(CCNC(=O)c2cccc(S(=O)(=O)N3CC(C)OC(C)C3)c2)cc1OCC (stereo not given)	.	-4.0	.	i	1.8	-4.5	-6.5	-6.9
Cc1ccc(C2OC(=O)C=C2c2ccccc2)cc1 (stereo not given)	.	0.7	.	i	0.4	2.5	-13.6	-63.4
Cc1ccc(-n2c(Cc3ccccc3)n[nH]c2=S)cc1	-5.2	-20.0	-3.6	i	1.9	2.6	-15.7	-48.7

(more compounds)
SMILES	eIF4H inh	CSC inhib	PABP FP inh	Rce1 inhib	MT1-MMP act inh	MT1-MMP act inh RFP	Yeast UUG start	HIV Env fusion
CC(C)(C)N=C1NN=C(c2cc3ccccc3o2)CS1	8.8	14.4	-3.4	i	-29.1	-10.9	-11.6	-136.2
Cc1ccc(NC(=S)NC(=O)C2CCCC2)cc1C	-4.0	3.0	2.8	i	-2.1	-2.9	-22.7	-44.8
Nc1cccc2c1C(=O)N(C(=O)c1ccc(S(=O)(=O)N3CCCCCC3)cc1)C2=O	5.1	-12.0	9.2	i	4.3	1.4	-3.0	14.7
CCc1n[nH]c(=O)n1Cn1c(CC)n[nH]c1=O	-4.4	-3.8	-15.2	i	0.9	8.5	-7.4	4.8
Cc1ccc(NC(=O)C2CCN(C(=O)c3ccccc3C)CC2)cc1	-16.6	-3.3	-1.3	i	1.7	0.5	.	18.6
C=CCOn1c(=O)c(-c2ccccc2)[n+]([O-])c2ccccc21	5.1	-5.1	8.8	i	1.8	2.9	-21.7	5.1
COc1ccc(CNS(=O)(=O)c2ccc(-n3cnnn3)c(C)c2)cc1	-2.6	.	-4.7	i	-2.6	-1.6	-19.8	9.5
CSc1ccc(/C=C/C(=O)OCC(=O)N2CCCCCC2)cc1	.	-15.1	.	.	0.7	0.3	-14.8	-35.3
CCOC(=O)C1CCN(C(=S)NC2CC3C=CC2C3)CC1 (stereo not given)	-2.6	-1.5	-1.8	i	7.4	2.4	-26.7	-24.9
CSc1nc2ccc(N3C(=O)C4CCCCC4C3=O)cc2s1 (stereo not given)	-6.3	13.9	2.1	i	7.0	1.1	1.6	14.3

Full records from above. Order of values: eIF4H inh | CSC inhib | PABP FP inh | Rce1 inhib | MT1-MMP act inh | MT1-MMP act inh RFP | Yeast UUG start | HIV Env fusion
Nc1cccc2c1C(=O)N(C(=O)c1ccc(S(=O)(=O)N3CCCCCC3)cc1)C2=O is listed as 5.1 | -12.0 | 9.2 | i | 4.3 | 1.4 | -3.0 | 14.7
CC(C)(C)N=C1NN=C(c2cc3ccccc3o2)CS1 is listed as 8.8 | 14.4 | -3.4 | i | -29.1 | -10.9 | -11.6 | -136.2
CCc1n[nH]c(=O)n1Cn1c(CC)n[nH]c1=O is listed as -4.4 | -3.8 | -15.2 | i | 0.9 | 8.5 | -7.4 | 4.8
Cc1ccc(NC(=S)NC(=O)C2CCCC2)cc1C is listed as -4.0 | 3.0 | 2.8 | i | -2.1 | -2.9 | -22.7 | -44.8
